A1 apoptosis 2 = A1 inhibitors via caspase activation, primary screen, cell-based, luminescence, HTS, two replicates; MEF A1-2A-BIM cells, caspase-Glo luminescence, 3 h; percent of clofoctol response, DMSO zero; caspase activation, % (concentration not given with the values); 24,000 tested, under 10 active; in the data active means caspase activation above about 5.9%;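 further: wells of about 30 µL received 50 nL stock; the first replicate is given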
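System: mouse embryonic fibroblasts co-expressing A1 and BIM (A1-2A-BIM), primed for A1 dependence; amount: 2500 cells/well; doses: 50 nL pinned compound; schedule: cells settled overnight, compound exposure 3 h at 37 °C, 5% CO2; detection: Caspase-Glo 3/7 luminescence, 1 h at room temperature; read-out: Caspase-3/7 activation, seen as rise in luminescence signal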
Starred values were filed as active, the others as inactive. An excerpt. The share of hits here may be higher or lower than overall.

SMILES | A1 apoptosis 2
CC(C)NC(=O)Nc1ccc2c(c1)C(=O)N([C@@H](C)CO)C[C@H](C)[C@@H](CN(C)C(=O)Nc1ccccc1)O2 | -1.5
C[C@H](CO)N1C[C@H](C)[C@@H](CN(C)C)Oc2ccc(NC(=O)Nc3cccc4ccccc34)cc2C1=O | -0.8
C[C@@H]1CCCCO[C@H](CN(C)C(=O)Nc2ccccc2)[C@H](C)CN([C@@H](C)CO)C(=O)c2cc(NS(=O)(=O)c3cn(C)cn3)ccc2O1 | -0.1
C[C@H]1CCCCO[C@H](CN(C)C(=O)Nc2ccc3c(c2)OCO3)[C@@H](C)CN([C@@H](C)CO)C(=O)c2cc(NS(=O)(=O)c3ccc(Cl)cc3)ccc2O1 | -0.4
COc1ccc(NC(=O)N(C)C[C@@H]2Oc3ccc(NC(=O)Cc4cn(C)c5ccccc45)cc3C(=O)N([C@H](C)CO)C[C@@H]2C)cc1 | -0.9
COc1ccc(NC(=O)Nc2ccc3c(c2)C(=O)N([C@@H](C)CO)C[C@@H](C)[C@@H](CN(C)Cc2ccc(Cl)c(Cl)c2)OCCCC[C@@H](C)O3)cc1 | -0.6
C[C@H]1CN([C@@H](C)CO)C(=O)Cc2cc(NC(=O)Cc3cn(C)c4ccccc34)ccc2O[C@H]1CN(C)Cc1ccc(C(=O)O)cc1 | 1.3
Cc1ccc(S(=O)(=O)N(C)C[C@@H]2Oc3c(NC(=O)Nc4ccc(F)cc4)cccc3C(=O)N([C@H](C)CO)C[C@H]2C)cc1 | 0.3
COc1ccc(S(=O)(=O)Nc2ccc3c(c2)C(=O)N([C@H](C)CO)C[C@@H](C)[C@H](CN(C)C(=O)Nc2ccc(F)cc2)OCCCC[C@H](C)O3)cc1 | -0.3
Cc1ccc(S(=O)(=O)N(C)C[C@H]2Oc3ccc(NS(C)(=O)=O)cc3CC(=O)N([C@@H](C)CO)C[C@H]2C)cc1 | -0.2
COc1ccc(NC(=O)Nc2ccc3c(c2)CC(=O)N([C@@H](C)CO)C[C@H](C)[C@@H](CN(C)Cc2ccc(Cl)c(Cl)c2)O3)cc1 | 0.3
C[C@@H]1CN([C@H](C)CO)C(=O)c2cc(NC(=O)Cc3ccccc3)ccc2O[C@H]1CN(C)S(=O)(=O)c1ccccc1 | 0.5
COc1ccc(CN(C)C[C@@H]2OCCCC[C@H](C)Oc3ccc(NC(=O)NC4CCCCC4)cc3C(=O)N([C@H](C)CO)C[C@H]2C)cc1 | 0.0
Cc1cc(C(=O)Nc2cccc3c2O[C@@H](CN(C)S(=O)(=O)c2ccc(F)cc2)[C@@H](C)CN([C@H](C)CO)C3=O)n(C)n1 | -0.5
C[C@H]1CN([C@@H](C)CO)C(=O)c2cc(NC(=O)CCCN(C)C)ccc2O[C@H]1CN(C)S(C)(=O)=O | -0.7
CC(C)NC(=O)Nc1ccc2c(c1)C(=O)N([C@@H](C)CO)C[C@H](C)[C@H](CN(C)C(=O)NC(C)C)OCCCC[C@@H](C)O2 | -0.4
C[C@H](CO)N1C[C@H](C)[C@@H](CN(C)Cc2ccc(C(=O)Nc3ccccc3N)cc2)Oc2ccc(NC(=O)Nc3ccccc3)cc2CC1=O | -1.3
COc1ccc(S(=O)(=O)Nc2cccc3c2O[C@H](CN(C)C(=O)Nc2cccc4ccccc24)[C@@H](C)CN([C@H](C)CO)C3=O)cc1 | 0.6
COc1ccc(S(=O)(=O)N(C)C[C@H]2Oc3ccc(NC(=O)C4CC4)cc3C(=O)N([C@@H](C)CO)C[C@@H]2C)cc1 | 0.7
COc1ccc(NC(=O)Nc2ccc3c(c2)CC(=O)N([C@@H](C)CO)C[C@H](C)[C@@H](CN(C)S(=O)(=O)c2ccc(C)cc2)O3)cc1 | -1.8
C[C@@H]1CN([C@H](C)CO)C(=O)c2cccc(NC(=O)Nc3ccc(F)cc3)c2O[C@H]1CN(C)C(=O)Nc1ccccc1 | -0.5
COc1ccc(S(=O)(=O)N(C)C[C@@H]2Oc3ccc(NC(=O)Cc4ccccc4)cc3C(=O)N([C@@H](C)CO)C[C@H]2C)cc1 | 0.0
C[C@@H]1CN([C@H](C)CO)C(=O)c2cc(NC(=O)Cn3cnnn3)ccc2O[C@@H]1CN(C)Cc1ccc(Cl)c(Cl)c1 | 0.1
C[C@@H]1CN([C@@H](C)CO)C(=O)c2cc(NC(=O)C3CCCCC3)ccc2O[C@H]1CN(C)C(=O)Nc1ccc2c(c1)OCO2 | -0.5
C[C@@H]1CCCCO[C@H](CN(C)C(=O)NC2CCCCC2)[C@@H](C)CN([C@@H](C)CO)C(=O)c2cc(NC(=O)Nc3ccc(C(F)(F)F)cc3)ccc2O1 | -0.7
COc1ccc(NC(=O)Nc2cccc3c2O[C@H](CN(C)Cc2ccc(C(=O)O)cc2)[C@H](C)CN([C@@H](C)CO)C3=O)cc1 | 0.7
OC[C@@H]1[C@H]2c3ccccc3OC1(CO)N=C1SCc3ccccc3CN12 | 0.5
C[C@@H]1CN([C@H](C)CO)C(=O)c2cccc(NS(C)(=O)=O)c2O[C@H]1CN(C)Cc1ccc(C(F)(F)F)cc1 | -1.5
C[C@@H]1CN([C@H](C)CO)C(=O)c2cc(NC(=O)Cc3cn(C)c4ccccc34)ccc2O[C@H]1CN(C)C(=O)Nc1ccc2c(c1)OCO2 | 0.0
C[C@@H]1CCCCO[C@@H](CN(C)C(=O)c2ccccc2)[C@@H](C)CN([C@H](C)CO)C(=O)c2cc(NC(=O)c3ccccc3)ccc2O1 | -0.3
CNC[C@@H]1Oc2ccc(NS(=O)(=O)c3ccc(OC)cc3)cc2C(=O)N([C@H](C)CO)C[C@H]1C | -0.3
Cc1noc(C)c1NC(=O)N(C)C[C@H]1Oc2ccc(NS(=O)(=O)c3c(C)noc3C)cc2C(=O)N([C@@H](C)CO)C[C@H]1C | -0.2
Cc1noc(C)c1NC(=O)Nc1ccc2c(c1)C(=O)N([C@@H](C)CO)C[C@@H](C)[C@@H](CN(C)S(=O)(=O)c1ccc(F)cc1)OCCCC[C@H](C)O2 | -0.9
C[C@H]1CN([C@@H](C)CO)C(=O)Cc2cc(NC(=O)CCCCCC(=O)Nc3ccccc3N)ccc2O[C@@H]1CN(C)Cc1ccc2c(c1)OCO2 | -0.8
CC(C)NC(=O)Nc1ccc2c(c1)CC(=O)N([C@H](C)CO)C[C@H](C)[C@@H](CN(C)Cc1ccc(Oc3ccccc3)cc1)O2 | -1.4
C[C@@H]1CCCCO[C@H](CN(C)C(=O)CCC(F)(F)F)[C@@H](C)CN([C@@H](C)CO)C(=O)c2cc(NS(=O)(=O)c3ccc(F)cc3)ccc2O1 | 1.0
Cc1ccc(S(=O)(=O)N(C)C[C@@H]2Oc3c(NS(=O)(=O)c4ccccc4)cccc3C(=O)N([C@@H](C)CO)C[C@H]2C)cc1 | 0.3
CC(C)NC(=O)Nc1ccc2c(c1)CC(=O)N([C@@H](C)CO)C[C@@H](C)[C@@H](CN(C)C(=O)NC(C)C)O2 | -0.7
C[C@H](CO)N1C[C@H](C)[C@H](CN(C)Cc2ccc(C(=O)Nc3ccccc3N)cc2)OCc2cnnn2CCCC1=O | -0.3
C[C@@H]1CN([C@H](C)CO)C(=O)c2cc(NS(=O)(=O)c3cn(C)cn3)ccc2O[C@H]1CN(C)C | 0.2
C[C@H](CO)N1C[C@H](C)[C@H](CN(C)CC2CC2)Oc2c(cccc2N(C)C)C1=O | -0.2
C[C@@H]1CN([C@@H](C)CO)C(=O)Cc2cc(NS(=O)(=O)c3ccc(F)cc3)ccc2O[C@H]1CN(C)S(C)(=O)=O | 0.6
C[C@@H]1CCCCO[C@H](CN(C)C)[C@@H](C)CN([C@@H](C)CO)C(=O)c2cc(NC(=O)c3ccccc3)ccc2O1 | -0.3
Cc1ccc(S(=O)(=O)Nc2cccc3c2O[C@@H](CN(C)C(=O)Nc2c(C)noc2C)[C@@H](C)CN([C@H](C)CO)C3=O)cc1 | -0.4
C[C@@H]1CN([C@H](C)CO)C(=O)c2cc(N(C)C)ccc2O[C@H]1CN(C)S(=O)(=O)c1ccccc1 | 0.6
C[C@@H]1CCCCO[C@H](CN(C)S(=O)(=O)c2ccccc2)[C@@H](C)CN([C@H](C)CO)C(=O)c2cc(NS(C)(=O)=O)ccc2O1 | 0.9
COc1ccc(S(=O)(=O)N(C)C[C@@H]2Oc3c(NC(=O)C4CC4)cccc3C(=O)N([C@H](C)CO)C[C@@H]2C)cc1 | -1.0
C#CCNC(=O)C1=C[C@H](c2ccc(C#C)cc2)[C@@H](CCCO)[C@H](OCC)O1 | -0.7
C[C@@H]1CCCCO[C@H](CN(C)C(=O)C2CCCCC2)[C@@H](C)CN([C@H](C)CO)C(=O)c2cc(NC(=O)Nc3ccc(C(F)(F)F)cc3)ccc2O1 | -0.6
COc1ccc(CN(C)C[C@H]2OCCCC[C@@H](C)Oc3ccc(NC(=O)CCC(F)(F)F)cc3C(=O)N([C@H](C)CO)C[C@@H]2C)cc1 | 0.7
C[C@H](CO)N1C[C@H](C)[C@@H](CN(C)C(=O)OCc2ccccc2)OCc2cn(nn2)CCCC1=O | 0.1
C[C@H]1CN([C@@H](C)CO)C(=O)c2cccc(NC(=O)c3nc4ccccc4s3)c2O[C@H]1CN(C)C(=O)NC1CCCCC1 | -0.5
C[C@H](CO)N1C[C@H](C)[C@@H](CN(C)C(=O)Nc2ccc3c(c2)OCO3)Oc2ccc(NC(=O)Cc3cn(C)c4ccccc34)cc2CC1=O | 0.9
COc1ccc(NC(=O)Nc2cccc3c2O[C@H](CN(C)S(=O)(=O)c2ccc(OC)cc2)[C@@H](C)CN([C@H](C)CO)C3=O)cc1 | 0.1
C[C@H](CO)N1C[C@H](C)[C@H](CN(C)Cc2ccc(C(=O)Nc3ccccc3N)cc2)Oc2c(NC(=O)Nc3cccc4ccccc34)cccc2C1=O | 0.0
C[C@H](CO)N1C[C@H](C)[C@@H](CN(C)Cc2ccc(C(=O)O)cc2)Oc2c(NS(=O)(=O)c3cccs3)cccc2C1=O | 1.6
C#Cc1ccc([C@H]2C=C(C(=O)N3CCN(Cc4ccc5c(c4)OCO5)CC3)O[C@@H](OCC)[C@@H]2CCCO)cc1 | -0.2
C[C@@H]1CN([C@@H](C)CO)C(=O)c2cc(NC(=O)CCN3CCOCC3)ccc2O[C@H]1CN(C)C(=O)Nc1ccc(F)cc1 | -0.4
C[C@@H]1CN([C@@H](C)CO)C(=O)c2cccc(NS(=O)(=O)c3ccc(Cl)cc3)c2O[C@@H]1CN(C)Cc1ccc2c(c1)OCO2 | 0.9
C[C@H]1CN([C@@H](C)CO)C(=O)c2cccc(NC(=O)C3CC3)c2O[C@@H]1CN(C)C(=O)Nc1cccc2ccccc12 | -1.1

Six structures out of the list, ordered by count of non-hydrogen atoms, largest number first:
SMILES | A1 apoptosis 2
C[C@H](CO)N1C[C@H](C)[C@H](CN(C)Cc2ccc(C(=O)Nc3ccccc3N)cc2)Oc2c(NC(=O)Nc3cccc4ccccc34)cccc2C1=O | 0.0
COc1ccc(NC(=O)Nc2cccc3c2O[C@H](CN(C)S(=O)(=O)c2ccc(OC)cc2)[C@@H](C)CN([C@H](C)CO)C3=O)cc1 | 0.1
C[C@H]1CN([C@@H](C)CO)C(=O)c2cccc(NC(=O)c3nc4ccccc4s3)c2O[C@H]1CN(C)C(=O)NC1CCCCC1 | -0.5
C[C@H](CO)N1C[C@H](C)[C@@H](CN(C)Cc2ccc(C(=O)O)cc2)Oc2c(NS(=O)(=O)c3cccs3)cccc2C1=O | 1.6
COc1ccc(S(=O)(=O)N(C)C[C@@H]2Oc3c(NC(=O)C4CC4)cccc3C(=O)N([C@H](C)CO)C[C@@H]2C)cc1 | -1.0
C[C@H](CO)N1C[C@H](C)[C@@H](CN(C)C(=O)OCc2ccccc2)OCc2cn(nn2)CCCC1=O | 0.1

Pulled by compound from above (2):
SMILES | A1 apoptosis 2
C[C@H](CO)N1C[C@H](C)[C@@H](CN(C)C(=O)Nc2ccc3c(c2)OCO3)Oc2ccc(NC(=O)Cc3cn(C)c4ccccc34)cc2CC1=O | 0.9
COc1ccc(CN(C)C[C@H]2OCCCC[C@@H](C)Oc3ccc(NC(=O)CCC(F)(F)F)cc3C(=O)N([C@H](C)CO)C[C@@H]2C)cc1 | 0.7

New compounds follow
SMILES | A1 apoptosis 2
C[C@@H]1CCCCO[C@@H](CN(C)C(=O)Nc2ccc3c(c2)OCO3)[C@@H](C)CN([C@H](C)CO)C(=O)c2cc(NS(=O)(=O)c3ccc(Cl)cc3)ccc2O1 | 0.8
CC(C)NC(=O)N(C)C[C@@H]1Oc2ccc(NS(=O)(=O)c3cccs3)cc2CC(=O)N([C@@H](C)CO)C[C@H]1C | 0.5
C[C@@H]1CN([C@H](C)CO)C(=O)c2cc(NC(=O)Nc3cccc4ccccc34)ccc2O[C@H]1CN(C)Cc1ccccc1 | 1.4
Cc1noc(C)c1NC(=O)N(C)C[C@H]1OCCCC[C@H](C)Oc2ccc(NS(=O)(=O)c3cccs3)cc2C(=O)N([C@@H](C)CO)C[C@H]1C | -1.1
C[C@@H]1CN([C@@H](C)CO)C(=O)c2cc(NC(=O)Nc3ccccc3)ccc2O[C@@H]1CN(C)CC1CC1 | -0.5
CNC[C@@H]1Oc2c(NS(=O)(=O)c3cccs3)cccc2C(=O)N([C@H](C)CO)C[C@H]1C | 0.3
C[C@@H]1CCCCO[C@@H](CN(C)S(=O)(=O)c2ccc(F)cc2)[C@@H](C)CN([C@@H](C)CO)C(=O)c2cc(NC(=O)Nc3ccc4c(c3)OCO4)ccc2O1 | -0.3
C[C@@H]1CCCCO[C@H](CN(C)C)[C@@H](C)CN([C@H](C)CO)C(=O)c2cc(NC(=O)Nc3ccccc3)ccc2O1 | -0.2
C[C@H]1CN([C@@H](C)CO)C(=O)Cc2cc(N(C)C)ccc2O[C@@H]1CN(C)C(=O)NC1CCCCC1 | 0.2
